# Assay outcomes (PubChem)
# ClpP mod: qHTS Assay for Activators of ClpP | ATP-dependent Clp protease proteolytic subunit (Bacillus subtilis (strain 168)), P80244 | purified B. subtilis ClpP, FRET peptide cleavage, 20 min | Potency, µM (top dose mostly 57.5 µM), without a hit: at the highest dose activity change, negative = active | hit rate 1.9% among 340,000 | AID 651965, 2013; active = well fitted falling curve with a large enough effect; inconclusive = small, poorly fitted or top-dose-only effect; inactive = no such curve, though single readings can be large or run the other way; also: potency is read from the fitted curve at half-maximal effect; the source files actives as falling curves though it sought activators and does not explain the sign; nearly all actives have a fitted effect of over 65% in size; many hits overshoot -100%
# Target sequence (P80244 whole entry, looked up): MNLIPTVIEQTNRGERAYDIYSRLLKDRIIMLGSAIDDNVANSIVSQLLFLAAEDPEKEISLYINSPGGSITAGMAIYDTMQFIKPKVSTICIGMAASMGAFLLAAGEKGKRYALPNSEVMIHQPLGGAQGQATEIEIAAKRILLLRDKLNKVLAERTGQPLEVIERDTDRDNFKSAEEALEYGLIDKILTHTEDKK
#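 Purified B. subtilis ClpP, 10 microg/mL final in Tris/HCl pH8 with KCl, BSA, glycerol and Tween-20, cleaved an Abz/nitrotyrosine-quenched decapeptide. Fluorescence (ex 320, em 430) was read at 0 and 20 min at room temperature. Delta was normalized to 5.8 microM ADEP and DMSO/no-enzyme controls.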
# gsp antagonist: qHTS for Antagonists of gsp, the Etiologic Mutation Responsible for Fibrous Dysplasia/McCune-Albright Syndrome: qHTS; gsp-mutant cells, cAMP HTRF, 30 min; control for the full effect not named in the record; Potency, µM (doses to about 76.9 µM), for the others: top-dose activity change, negative = inhibition, usual class: inhibitors; hit rate 0.4% among 340,000; AID 624288, 2012; active = falling curve of any shape with a large fitted effect; inconclusive = falling curve, mostly with a smaller effect; inactive = flat or rising curve; cell line not stated here;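 also: intracellular cAMP measured with PDE inhibitor Ro 20-1724 present during compound exposure; potency is read from the fitted curve at half-maximal effect; % is scaled to controls: 0 for no effect and ±100 for the full control effect; nearly all actives have a fitted effect of over 65% in size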
#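 G418-selected cells were plated in DMEM/10% FBS for 16-24 h at 37C, then treated with compounds plus the PDE inhibitor […] (300 uM solution added) for 30 min at 37C. Intracellular cAMP was measured by HTRF after 30 min lysis at room temperature.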
# Sfp inh: qHTS Assay for Inhibitors of Bacillus subtilis Sfp phosphopantetheinyl transferase (PPTase). hit rate 3.5% among 310,000. Potency, µM, without a hit: max response, negative = inhibition, hits mostly inhibitors. Biochemical Sfp PPTase activity, qHTS; active = well fitted inhibition curve with a large enough effect; inconclusive = small, poorly fitted or top-dose-only effect, or another doubt; inactive = no such curve, though single readings can be large or run the other way;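 also: the enzyme is Sfp with the accession as filed and its product quenches rhodamine fluorescence; potency is read from the fitted curve at half-maximal effect; 0% = enzyme reaction without inhibitor and -100% = no enzyme wells; top concentration of the series not given in the record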
#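 Buffer: 50 mM Hepes-Na pH 7.6, 10 mM MgCl2, 0.01% Nonidet P-40, 0.01% BSA. Enzyme 15 nM, pre-exposed to compound 15 min; substrates then added and fluorescence change tracked over 30 min.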
# Menin MLL FP FL: qHTS Assay for Inhibitors Targeting the Menin-MLL Interaction in MLL Related Leukemias: Competition With Fluorescein Labeled MLL-derived Peptide; Fluorescence polarization, fluorescein-MLL peptide displacement from menin; FP activity change, % at 61.4 µM; 290,000 tested, under 10 active; inconclusive = falling polarisation curve, or a change in total fluorescence; inactive = total fluorescence flat and polarisation flat or rising; no compound was filed as active; the % refers to the polarisation; negative = inhibition;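 also: % of control where 0% means no effect; inhibitors lower the polarisation; unlabelled MLL peptide was the positive control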
# TRPV1 PAM: HTS Assay for Compounds that Act as Potentiators of the Vanilloid Receptor 1 | TRPV1-expressing cells, Fluo-8 calcium influx, capsaicin EC20 potentiation; host cell line not named in the record; control for the full effect not named in the record | hit rate 0.02% among 320,000 | potentiation, % at 8.33 µM; active means potentiation above 80%; inconclusive means 30% to 80%; inactive means below 30%; also: 0% is about no effect
#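 TRPV1-expressing cells were cultured overnight at 35.5C and loaded with Fluo-8 calcium dye for 40 to 90 min at room temperature. After a 10 s baseline, compound was added and calcium influx was read kinetically for 3 min (ex 480/em 520 nm).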
# gsp agonist: qHTS for Agonist of gsp, the Etiologic Mutation Responsible for Fibrous Dysplasia/McCune-Albright Syndrome: qHTS; gsp mutant cells, cAMP HTRF, 30 min; control for the full effect not named in the record; Potency, µM (series often up to 76.9 µM), for inactives: at the top dose activation (cAMP increase), hits mostly activators; hit rate 0.13% among 340,000; AID 624287, 2012; active = well fitted activation curve with a large enough effect; inconclusive = small, poorly fitted or top-dose-only effect, or another doubt; inactive = no such curve, though single readings can be large or run the other way; cell line not stated here;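 also: phosphodiesterase inhibitor Ro 20-1724 added with compounds to block cAMP breakdown; potency is read from the fitted curve at half-maximal effect; nearly all actives have a fitted effect of over 60% in size; about a fifth of the inactives were tested at one dose only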
#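 Cells stably selected in G418 were plated at 2000/well, grown 16-24 hr, then given compounds in DMSO with the PDE inhibitor […] (300 uM solution added) for 30 min at 37C; cAMP was read by HTRF.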
# TRPML1 inh: qHTS for Inhibitors of the Human Mucolipin Transient Receptor Potential 1 (TRPML1); Mucolipin-1 (Homo sapiens), Q9GZU1; TRPML1-inducible cells, Ca2+ dye fluorescence, FDSS; active compounds read low; inhibition of EC80 agonist-evoked calcium signal; activity change, negative = inhibition, % (concentration not given with the values); hit rate 0.02% among 390,000; AID 624415, 2012; in the data active means activity change below about -50%; inconclusive means about -30% to -50%; inactive means above about -30%;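 also: stimulus is agonist 54-4 at its EC80 concentration; % is scaled to controls: 0 for no effect and ±100 for the full control effect; the text of the record puts the active cut at -80%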
# Target sequence (Q9GZU1 whole entry, looked up): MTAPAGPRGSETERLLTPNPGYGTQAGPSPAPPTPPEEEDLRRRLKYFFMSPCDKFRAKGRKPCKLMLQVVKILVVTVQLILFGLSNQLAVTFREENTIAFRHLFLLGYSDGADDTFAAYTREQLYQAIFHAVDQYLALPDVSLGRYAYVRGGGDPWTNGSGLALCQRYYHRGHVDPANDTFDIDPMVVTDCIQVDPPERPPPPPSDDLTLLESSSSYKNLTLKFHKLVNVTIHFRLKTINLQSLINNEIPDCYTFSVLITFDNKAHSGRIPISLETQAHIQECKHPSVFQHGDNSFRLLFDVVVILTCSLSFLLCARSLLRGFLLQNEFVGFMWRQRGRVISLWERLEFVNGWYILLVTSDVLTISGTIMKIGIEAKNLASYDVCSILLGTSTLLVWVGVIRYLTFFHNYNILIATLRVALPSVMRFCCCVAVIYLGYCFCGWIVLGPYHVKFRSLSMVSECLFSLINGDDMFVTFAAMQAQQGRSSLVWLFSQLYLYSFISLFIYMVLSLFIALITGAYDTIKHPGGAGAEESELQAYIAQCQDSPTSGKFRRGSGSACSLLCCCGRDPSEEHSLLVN
#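 TRPML1-DL cells, Tet-induced overnight (~16 h, 37 °C) at 1,500 cells/well, were loaded with Ca8 no-wash dye plus quencher for 45-90 min at room temperature. Compounds were pinned during FDSS kinetic reading; agonist 54-4 at EC80 (4 uM final) then added.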
# * = called active by the depositor; ? = inconclusive; · = no result given; & = joins results of further samples; [ ] = another dose, or the depositor's remark.
SMILES,ClpP mod,gsp antagonist,Sfp inh,Menin MLL FP FL,TRPV1 PAM,gsp agonist,TRPML1 inh
CCN(C(=O)c1ccco1)c1nc(-c2ccc(OC)cc2)cs1,-3.8%,-10%,89µM*,4.2,13,-6%,-16
c1ccc2sc(N3CCN(Cc4nnnn4CC4CCCO4)CC3)nc2c1 (stereo not given),1.0%,-1%,-7%,3.1,-13,4%,7
O=C(NC1CCc2ccccc21)C12CN(Cc3ccccc3)CC1C(c1cccc([N+](=O)[O-])c1)=NO2 (stereo not given),-1.5%,-6%,-10%,4.3,-11,6%,8
Cc1ccc(C(=O)O/N=C(\N)Cc2ccc([N+](=O)[O-])cc2)c(Cl)c1,-2.5%,-9%,4%,-2.0,-14,3%,8
CCN1CNC(=S)N(CCc2ccccc2)C1,-23%,6%,12%,5.4,1,1%[15.4 µM],6
OC(c1nc2ccccc2[nH]1)C(O)C(O)C(O)c1nc2ccccc2[nH]1 (stereo not given),0.6%,7%,16%,0.9,0,0%[15.4 µM],-2
CC(C)(C)c1cc(CN2CCCC(O)C2)c(O)c(C(C)(C)C)c1 (stereo not given),-0.6%,-16%,16%,5.1,-13,-20%,-6
COc1cccc(-c2ccc(SCC(=O)NCCc3ccccc3)nn2)c1,·,5%,-12%,-1.5,29,-8%[15.4 µM],9
O=[N+]([O-])c1ccc(CSc2nc3ccccc3o2)cc1,-1.6%,2%,2%,3.5,21,-25%,14
CC(C)COC(=O)N(C)c1ccc(C(O)(C(F)(F)F)C(F)(F)F)cc1,-0.8%,0%,20%,4.0,-7,40%,28
CC1CN(C(=O)C2CC2)C(C)CN1C(=O)C1CC1 (stereo not given),-8.8%,15%,-13%,-0.1,10,25%,4
O=C(c1ccc(S(=O)(=O)Cc2ccccc2F)c([N+](=O)[O-])c1)N1CCCCCC1,·,-11%,10%,1.3,-20,-24%[15.4 µM],-16
O=C(c1ccccc1)N(Cc1cccs1)C1CCS(=O)(=O)C1 (stereo not given),-1.1%,-3%,?,4.2,-5,2%,-1
COc1ccc(C)cc1NC(=O)c1ccccc1NS(=O)(=O)c1cccc2cccnc12,-0.4%,3%,10%,-0.7,15,-28%,-9
C/C=C/Cn1cccc(C(=O)Nc2ccc(OC)cc2)c1=O,·,12%,14%,5.1,-17,-2%[15.4 µM],8
Cc1ccc(N(CC(=O)NCC2CCCO2)C(=O)CCC(=O)Nc2cc(C)on2)cc1 (stereo not given),-1.4%,11%,13%,0.2,23,12%[15.4 µM],-5
COc1ccc(CC(=O)N(C)c2ccccc2)cc1S(=O)(=O)N1CCOCC1,-2.3%,·,·,·,·,-3%,1
CCOC(=O)/C(C#N)=C\c1cc(C)n(-c2ccccc2)c1C,-5.7%,-7%,-9%,5.8,-17,-10%,-15
COc1ccc(CC(=O)NNC(=S)Nc2ccccc2)cc1Br,-1.3%,-7%[15.4 µM],8%,-0.3,5,1%,3
C/C(=N\NC(=S)NC(C)C)c1ccc(-n2ccnc2)cc1,2.6%,-4%,17%,-0.4,1,-32%,6
Cc1ccc(S(=O)(=O)N2CCC[C@H]2C(=O)OCC(=O)N2c3ccccc3NC(=O)C2(C)C)cc1,0.7%,-12%,·,·,·,-4%,11
Cc1c(C)c2ccc(OCC(=O)Nc3cccnc3)cc2oc1=O,4.7%,?,22%,·,21,17%,39
Cc1ccccc1CNC(=O)C1CCN(c2nnc(N3CCCC3=O)s2)CC1,-1.7%,7%,15%,-5.0,-11,-18%,-1
COc1ccccc1/C=N/N1C(=O)c2cccc3cccc(c23)C1=O,·,17%,9%,-25,5,-11%[15.4 µM],13
CC(C)(C)CC(=O)Nc1ccc(C(N)=O)cc1,2.0%,7%,11%,1.3,-6,19%,6
OC1CC2CCC(C1)N2CCCN1c2ccccc2Sc2ccc(Cl)cc21 (stereo not given),·,17%,·,·,·,-21%,0
COCCNc1nc(SCC(=O)N2CCN(c3ccccc3)CC2)nc2ccccc12,-2.5%,5%,-19%,5.4,-24,-17%,-4
CCOC(=O)c1c(NC(=O)COc2cccc3c2CCN(C)C3=O)sc2c1CCC2,-29%,14µM*,?,9.7,-3,-40%[inhibitor],-9
C=CCN(C(=O)CNC(=O)c1ccco1)C(C(=O)NC1CCCCC1)c1ccc(OC)cc1 (stereo not given),0.2%,-8%,18%,0.5,13,3%,-8
Cc1ccc(C2C3=C(CCCC3=O)N=C3c4ccccc4C(=O)C32)cc1 (stereo not given),1.1%,-8%,-16%,3.2,-12,-16%,6
CCOC(=O)c1sc(NC(=O)CN2C(=O)NC3(CCCCCCC3)C2=O)c(C(=O)OCC)c1C,-3.3%,-7%,7%,5.6,4,6%,-5
CCOc1ccc2[nH]c(=O)c(CN(CCCN3CCOCC3)Cc3nnnn3Cc3ccc(OC)cc3)cc2c1,·,·,2%,0.1,-31,4%[15.4 µM],-18
Cc1ccc(Sc2ccc(S(=O)(=O)Nc3ccc(CC(=O)O)cc3)cc2)cc1C,2.5%,20%,·,·,-5,27%,24
Cc1cn([C@H]2C[C@H](N=[N+]=[N-])[C@@H](CO)O2)c(=O)[nH]c1=O,0.6%,-6%,34%&15%[activator],-1.8&0.2,3,·,-12
COc1ccc(C2=NS(=O)(=O)N(C)C(C(=O)N3CCc4ccccc4C3)=C2)cc1OC,-7.3%,?,1%,-5.0,10,-27%,-12
O=C(COC(=O)c1cc[n+]([O-])cc1)Nc1ccccc1Sc1ccccc1,1.1%,12%,21%,12,-19,3%,34
CCOC(=O)CNC(=O)CN1C(=O)CC(c2ccccc2)S(=O)(=O)c2ccccc21 (stereo not given),·,·,-11%,0.5,-14,-4%[15.4 µM],2
Cc1noc(C)c1COC(=O)c1cccc(S(=O)(=O)N2CCCCCC2)c1,-1.4%,?,6%,4.0,-7,4%,58
O=C(NCCCO)Nc1ccc2nc(-c3ccco3)c(-c3ccco3)nc2c1,·,·,14µM*,?,0,·,·
CC(C(=O)Nc1ccc(Cl)cc1Cl)N1C(=O)NC2(CCCC2)C1=O (stereo not given),·,10%,-1%,1.3,5,18%,-27
CCOC(=O)C1(Cc2ccccc2)CCN(Cc2cnn(CC)c2)CC1,·,8%,5%,-2.4,-2,21%,13
CCNc1nc(Oc2ccc(=O)[nH]n2)nc(SC)n1,1.3%,5%,2%,2.4,2,13%,7
CC(C)Cn1ccc(=O)n(CC(C)C)c1=O,2.5%,10%,-4%,2.0,7,-5%[15.4 µM],1
O=C(CSc1nnc(CNC(=O)c2ccco2)o1)Nc1ccc(Br)cc1,0.7%,-3%,-19%,-1.0,0,-39%[inhibitor],12
CC(C)c1ccc(N2C(=NC(=O)C3CCCO3)SC3CS(=O)(=O)CC32)cc1 (stereo not given),·,-5%,6%,·,-5,16%,10
Cc1onc(-c2ccccc2)c1C(=O)N1CCN(S(=O)(=O)c2ccc3c(c2)OCCO3)CC1,-0.2%,-17%,11%,5.9,9,-4%,-2
CCCSc1nc(C)c(CC(=O)O)c(=O)[nH]1,-1.3%,5%,10%,-3.8,-18,-8%,5
COc1ccc(OC)c(NC(=O)Cc2csc(NC(=O)Nc3ccccc3OC)n2)c1,-3.2%,-29%,·,·,?,-6%,-1
Cc1ccc(C(=O)Nc2cccc(C(=O)N3CCN(C)CC3)c2)cc1,-1.6%,10%,14%,4.3,12,5%,18
Cc1cc(C(=O)N[C@@H](c2ccccc2)[C@]2(C)C[C@H]2[C@@H](C)C(=O)Nc2ccc3ccccc3c2)no1,-5.2%,3%,20%&17%,3.1&-1.7,0,·,0
COc1cc2c(=O)n(CC3CCCO3)c(=O)n(CC(=O)Nc3ccccc3)c2cc1OC (stereo not given),3.7%,8%,16%,?,?,16%,7
CCOc1ccc(C(=O)Nc2ccc(C(=O)N3CCOCC3)cc2)c(OCC)c1,-2.1%,-16%,12%,·,-16,8%[15.4 µM],-1
CC(C)N1CC2(CC(c3ccccc3F)=NO2)CN1C(=O)c1ccc(C(C)(C)C)cc1 (stereo not given),1.6%,·,·,·,·,-6%,15
O=[N+]([O-])c1ccc2nc(-c3ccccc3)cc(-c3ccccc3)c2c1,-9.1%,7%,10%,6.8,-3,-36%[inhibitor],-15
NS(=O)(=O)c1ccc(NC(=O)COC(=O)C2CC(=O)N(Cc3ccccc3)C2)cc1 (stereo not given),·,2%,6%,4.1,-1,?,3
O=C(N/N=C/c1ccccc1)C(O)c1ccccc1 (stereo not given),-2.1%,8%,9%,-2.3,-2,-25%,7
Nc1ccc(N2CCOCC2)c(S(=O)(=O)Nc2cc(Cl)ccc2Cl)c1,·,-11%,9%,5.4,16,-2%,15
Cc1ccc2nc3c(cc(C(=O)NC4CCCC4)c(=N)n3C3CCCCC3)c(=O)n2c1,-0.5%,17%,14%,·,-4,-7%[15.4 µM],8
C=CCNC(=O)c1c2c(nc3ccccc13)-c1ccccc1CC2,32µM*,-8%,-6%,-0.8,-8,30%,0
O=C(O)CCc1ccc(-c2ccc(Cl)cc2)n1Cc1ccco1,-3.3%,-27%,-14%,1.7,-3,8%,0

# Shown as a hit in gsp antagonist (from the list above):
mol,gsp antagonist,Sfp inh,Menin MLL FP FL,gsp agonist,TRPML1 inh
CCOC(=O)c1c(NC(=O)COc2cccc3c2CCN(C)C3=O)sc2c1CCC2,14µM*,?,9.7,-40%[inhibitor],-9

# Outcome played no part in choosing rows; about 4.9% have a hit in one of these screens.
